# Myc binder: binders of human c-Myc, primary screen, biochemical, small molecule microarray, anti-His fluorescence. Myc proto-oncogene protein (Homo sapiens), P01106. hit rate 1.5% among 17,000. His-c-Myc binding. AID 624141, 2012. calls only;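 active means spot fluorescence over background with P-value below 7% in all four replicate spots, showing protein binding; compounds were printed on slides so no solution concentration is given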;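 further: score is binary with 100 for all four spots passing and 0 otherwise; about 2 pmol printed per array spot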
# Target sequence (P01106 whole entry, looked up): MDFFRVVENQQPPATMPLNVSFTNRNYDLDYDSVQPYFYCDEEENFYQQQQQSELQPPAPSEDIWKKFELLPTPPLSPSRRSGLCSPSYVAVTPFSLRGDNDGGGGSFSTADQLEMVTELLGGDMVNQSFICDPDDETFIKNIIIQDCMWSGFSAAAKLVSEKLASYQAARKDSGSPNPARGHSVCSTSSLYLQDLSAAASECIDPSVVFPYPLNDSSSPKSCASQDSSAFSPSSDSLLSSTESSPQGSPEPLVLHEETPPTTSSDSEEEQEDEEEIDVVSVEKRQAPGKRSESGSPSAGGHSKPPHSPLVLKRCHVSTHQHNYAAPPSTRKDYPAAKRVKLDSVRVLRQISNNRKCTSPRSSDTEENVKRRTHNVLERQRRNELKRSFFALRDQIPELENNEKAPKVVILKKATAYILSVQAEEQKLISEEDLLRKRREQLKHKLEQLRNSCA
# ID4 binder: binders of human ID4 protein, primary screen, biochemical, small molecule microarray, single point; calls only; hit rate 1.2% among 31,000; Flag-ID4 binding, fluorescence F/B; DNA-binding protein inhibitor ID-4 (Homo sapiens), P47928;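 active means spot signal over background at p below 0.07 in all four prints; compounds were printed on slides so no solution concentration is given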;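 further: a binder raises fluorescence above local background on the spot; about 2 pmol printed per array spot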
# Target sequence (P47928 whole entry, looked up): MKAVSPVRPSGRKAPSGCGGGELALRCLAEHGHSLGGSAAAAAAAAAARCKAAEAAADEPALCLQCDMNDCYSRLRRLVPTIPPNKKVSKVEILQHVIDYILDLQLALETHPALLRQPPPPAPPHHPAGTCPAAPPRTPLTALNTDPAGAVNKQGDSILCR
# mut p53 SMM: binders of human mutant p53, primary screen, biochemical, small molecule microarray, anti-GST fluorescence; mutant tumor protein p53 (GST-tagged), Homo sapiens; small molecule microarray binding; calls only; hit rate 0.4% among 17,000; AID 624136, 2012;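 active means compounds whose four printed spots each glow above background more than chance allows, each with a p-value under 7%; compounds were printed on slides so no solution concentration is given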;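 further: about 2 pmol printed per array spot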
# STAT3 binder: STAT3 binders, primary screen, biochemical, small molecule microarray, single point, set 2. Signal transducer and activator of transcription 3 (Homo sapiens), P40763. His-STAT3 binding, anti-His fluorescence. calls only. hit rate 0.2% among 17,000. AID 624138, 2012;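 active means compounds whose four printed spots each show fluorescence over background unusually high for their array block, chance value under 7%; compounds were printed on slides so no solution concentration is given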;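 further: about 2 pmol printed per array spot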
# Calls only; i = inactive; nt = not tested or not shown; + = active, no number. Some of the compounds tested; rates above refer to the full screens.
SMILES,Myc binder,ID4 binder,mut p53 SMM,STAT3 binder
C[C@@H]1OC(OC[C@H]2O[C@@H](Oc3cc(O)c4c(=O)cc(-c5ccc(O)c(O)c5)oc4c3)[C@H](O)[C@@H](O)[C@@H]2O)[C@H](O)[C@H](O)[C@H]1O (stereo partly drawn),i,i,i,i
CC(C)NS(=O)(=O)c1ccc(OCC(N)=O)cc1,i,i,i,i
Cc1noc(C)c1NC(=O)Nc1ccc2c(c1)C(=O)N([C@@H](C)CO)C[C@H](C)[C@H](CN(C)C(=O)C1CCCCC1)OCCCC[C@H](C)O2,i,i,i,i
C[C@H]1CN([C@@H](C)CO)C(=O)Cc2cc(NC(=O)Nc3ccc4c(c3)OCO4)ccc2O[C@H]1CN(C)C(=O)Nc1ccc2c(c1)OCO2,i,i,i,i
C[C@H](CO)N1C[C@H](C)[C@@H](CN(C)Cc2ccc(C(=O)O)cc2)Oc2ccc(NS(=O)(=O)c3ccc(F)cc3)cc2C1=O,i,nt,i,i
Cc1ccc(C(=O)C2C(=O)C(=O)N(Cc3cccnc3)C2c2ccc(Cl)c(Cl)c2)o1 (stereo not drawn),i,i,i,i
C[C@@H]1CN([C@@H](C)CO)C(=O)c2cccc(NC(=O)C3CCOCC3)c2O[C@H]1CN(C)C,i,i,i,i
COc1ccc([N+](=O)[O-])cc1NC(=O)c1ccccc1N(C)S(C)(=O)=O,i,i,i,i
CC(=O)NCCc1ccc(O)cc1,i,nt,i,i
C[C@H](CO)N1C[C@H](C)[C@@H](CN(C)S(=O)(=O)c2cn(C)cn2)Oc2ccc(NS(=O)(=O)c3cn(C)cn3)cc2CC1=O,i,i,i,i
CC(=O)O[C@@H]1[C@@H](OC(=O)/C=C/c2ccccc2)[C@@H](OC(=O)/C=C/c2ccccc2)[C@H](O[C@H]2[C@@H]3C=CO[C@@H](O[C@@H]4O[C@H](CO)[C@@H](O)[C@H](O)[C@H]4O)[C@@H]3[C@@]3(CO)O[C@@H]23)O[C@H]1C,i,i,i,i
COc1ccc(S(=O)(=O)N(C)C[C@@H]2Oc3ccc(NC(=O)CCCN(C)C)cc3CC(=O)N([C@@H](C)CO)C[C@@H]2C)cc1,i,i,i,i
O=C(CCN1C(=O)c2cccc([N+](=O)[O-])c2C1=O)Nc1ccccc1C(F)(F)F,i,i,i,i
Cc1cc(C)cc(NC(=O)COc2ccc3cc(-c4ccccc4)c(=O)oc3c2)c1,i,i,i,i
Cc1c(NC(=O)CSc2nnnn2-c2ccc(O)cc2)c(=O)n(-c2ccccc2)n1C,i,i,i,i
C[C@H]1CN([C@@H](C)CO)C(=O)c2cc(NC(=O)C3CC3)ccc2O[C@@H]1CN(C)Cc1ccc(C(F)(F)F)cc1,i,i,i,i
C[C@@H]1CN([C@@H](C)CO)C(=O)CCCn2cc(nn2)CO[C@@H]1CN(C)S(=O)(=O)c1ccccc1,i,i,i,i
CCCCC/C=C\C/C=C\CCCCCCCC(N)=O,i,i,i,i
Cc1c(C(=O)N(C)C)sc(NC(=O)c2cc(-c3ccccn3)nc3ccc(Cl)cc23)c1C#N,i,i,i,i
NS(=O)(=O)c1cc(C(=O)O)cc(N2CCCC2)c1Oc1ccccc1,i,i,i,i
O=C(CSc1nc(O)c(Cc2ccccc2)c(=O)[nH]1)N1CCOCC1,i,i,i,i
COCCOC(=O)N1C(=O)[C@@]2(c3cc(C#CC4=CCCCC4)ccc31)[C@H](c1ccc(O)cc1)N1[C@H](c3ccccc3)[C@H](c3ccccc3)OC(=O)[C@H]1[C@@H]2C(N)=O,i,nt,i,i
CC1OC(O[C@H]2[C@@H](O)C[C@@]3(C)C([C@H](O)C[C@]4(C)C3CC=C3[C@@H]5CC(C)(C)CC[C@]5(C(=O)OC5OC(C)C(OC6OCC(OC7OCC(O)C(OC8OCC(O)C(O)C8O)C7O)C(O)C6O)C(O)C5O)CC[C@]34C)[C@]2(C)CO)C(O)C(OC2OC(CO)C(O)C(O)C2O)C1O (stereo partly drawn),i,i,i,i
CC(=O)OC(CCCCCCCCCC(C)O)Cc1cc(O)cc(O)c1 (stereo not drawn),i,i,i,i
C[C@@H]1CCCCO[C@H](CN(C)Cc2ccccc2)[C@H](C)CN([C@H](C)CO)C(=O)c2cc(NC(=O)Cc3ccccc3)ccc2O1,i,nt,i,i
COc1ccc(S(=O)(=O)N(C)C[C@@H]2Oc3ccc(NC(=O)c4ccncc4)cc3CC(=O)N([C@H](C)CO)C[C@@H]2C)cc1,i,nt,i,i
COc1ccc(NC(=O)Nc2nn(Cc3ccc(Cl)cc3Cl)cc2Br)cc1OC,i,i,i,i
CCOc1ccc(C)cc1S(=O)(=O)Nc1ccc(Cl)cn1,i,i,i,i
C[C@H](CO)N1C[C@H](C)[C@H](CN(C)CC2CCCCC2)Oc2ccc(NS(C)(=O)=O)cc2CC1=O,i,nt,i,i
C[C@H](CO)N1C[C@H](C)[C@H](CN(C)S(C)(=O)=O)OCCCC[C@H](C)Oc2ccc(NC(=O)Nc3ccccc3)cc2C1=O,i,i,i,i
NC(N)=NC(=O)c1nc(Cl)c(N2CCCCCC2)nc1N,i,i,i,i
COC(=O)CSc1nc(C)c2ccc(OC)cc2n1,i,i,i,i
CC(NC(=O)c1ccccc1)c1nc2ccccc2n1Cc1ccc(Cl)cc1Cl (stereo not drawn),i,i,i,i
C[C@H](CO)N1C[C@H](C)[C@H](CN(C)Cc2ccc(Cl)c(Cl)c2)Oc2c(NS(=O)(=O)c3cccs3)cccc2C1=O,i,i,i,i
C=CCN(Cc1ccccc1)C(=O)[C@@H]1N(C(C)(C)C)C(=O)[C@H]2[C@H](C(=O)O)[C@@H]3C=C[C@]12O3,i,nt,i,i
CNC[C@H]1OCCCC[C@H](C)Oc2ccc(N(C)C)cc2C(=O)N([C@H](C)CO)C[C@H]1C,i,i,i,i

# Part of the list above in order of heavy-atom count, ascending:
SMILES,Myc binder,ID4 binder,mut p53 SMM,STAT3 binder
COC(=O)CSc1nc(C)c2ccc(OC)cc2n1,i,i,i,i
CCOc1ccc(C)cc1S(=O)(=O)Nc1ccc(Cl)cn1,i,i,i,i
COc1ccc(NC(=O)Nc2nn(Cc3ccc(Cl)cc3Cl)cc2Br)cc1OC,i,i,i,i
C[C@H](CO)N1C[C@H](C)[C@H](CN(C)S(C)(=O)=O)OCCCC[C@H](C)Oc2ccc(NC(=O)Nc3ccccc3)cc2C1=O,i,i,i,i

# Later entries
SMILES,Myc binder,ID4 binder,mut p53 SMM,STAT3 binder
CC(C)NC(=O)Nc1ccc2c(c1)C(=O)N([C@H](C)CO)C[C@H](C)[C@H](CN(C)S(=O)(=O)c1cn(C)cn1)OCCCC[C@H](C)O2,i,i,i,i
c1ccc(-c2nnc(SCc3nc4ccccc4[nH]3)n2C2CCCCC2)cc1,i,i,i,i
C#CCNC(=O)C1=C[C@H](C(C)(C)C)C[C@H](OCCCCO)O1,i,nt,i,i
CNC[C@@H]1Oc2ccc(NC(=O)Nc3c(C)noc3C)cc2CC(=O)N([C@@H](C)CO)C[C@H]1C,i,i,i,i
CCC(Sc1nc(C)cc(C)n1)C(=O)Nc1ccc(-c2nc3ccc(C)cc3s2)cc1 (stereo not drawn),i,i,i,i
C[C@H]1CN([C@@H](C)CO)C(=O)Cc2cc(N(C)C)ccc2O[C@@H]1CN(C)Cc1ccccc1,i,i,i,i
COc1cc(-c2cc(=O)c3c(O)c(OC)c(OC)c(OC)c3o2)cc(OC)c1OC,i,i,i,i
CCN(CC)S(=O)(=O)c1ccc(OC)c(NC(=O)c2cccnc2)c1,i,i,i,i
COc1ccc(CN(C)C[C@H]2Oc3ccc(NC(=O)Cc4cn(C)c5ccccc45)cc3C(=O)N([C@H](C)CO)C[C@H]2C)cc1,i,i,i,i
O=[N+]([O-])c1ccc(NCCNCCO)cc1,i,i,+,i
COc1ccc(CN(C)C[C@@H]2Oc3ccc(NC(=O)Nc4cccc5ccccc45)cc3CC(=O)N([C@H](C)CO)C[C@H]2C)cc1,i,i,i,i
[N-]=[N+]=NCc1ccccc1C[C@@]1(C(N)=O)N=C(c2ccc(OCCCO)cc2)O[C@@H]1c1ccccc1,i,nt,i,i
CN(CCc1ccccn1)Cc1cccc([N+](=O)[O-])c1,i,i,i,i
Cc1noc(C)c1NC(=O)Nc1ccc2c(c1)C(=O)N([C@@H](C)CO)C[C@@H](C)[C@@H](CN(C)C(=O)NC(C)C)OCCCC[C@@H](C)O2,i,i,i,i
COc1cc(O)cc2c1C(=O)OC(C)C2 (stereo not drawn),i,i,i,i
C[C@@H]1CN([C@H](C)CO)C(=O)c2cccc(NC(=O)c3ccncc3)c2O[C@@H]1CN(C)CC1CC1,i,i,i,i
Cc1noc(C)c1S(=O)(=O)Nc1ccc2c(c1)CC(=O)N([C@H](C)CO)C[C@H](C)[C@H](CN(C)C(=O)Nc1ccc(C(F)(F)F)cc1)O2,i,i,i,i
C[C@@H]1CN([C@H](C)CO)C(=O)c2cccc(NC(=O)Nc3ccc(C(F)(F)F)cc3)c2O[C@H]1CN(C)S(=O)(=O)c1ccc(Cl)cc1,i,i,i,i
Cc1noc(C)c1NC(=O)N(C)C[C@@H]1Oc2c(NS(C)(=O)=O)cccc2C(=O)N([C@@H](C)CO)C[C@H]1C,i,i,i,i
O=C(NCc1ccccc1)C1=C[C@H](c2csc3ccccc23)C[C@H](OCCCCO)O1,i,i,i,i
C=CCNC(=O)[C@H]1[C@@H]2C(=O)O[C@@H](c3ccccc3)[C@@H](c3ccccc3)N2[C@@H](c2ccc(O)cc2)[C@]12C(=O)Nc1ccc(C#CC3(O)CCCCCC3)cc12,i,nt,i,i
COc1ccc(C#Cc2ccc3c(c2)[C@]2(C(=O)N3)[C@H](C(=O)N3CCc4cc(OC)c(OC)cc4C3)[C@H]3C(=O)O[C@H](c4ccccc4)[C@H](c4ccccc4)N3[C@@H]2c2ccc(O)cc2)cc1,i,i,i,i
NC(CC(=O)O)c1cccc([N+](=O)[O-])c1 (stereo not drawn),i,i,i,i
Cc1noc(C)c1S(=O)(=O)Nc1ccc2c(c1)CC(=O)N([C@H](C)CO)C[C@@H](C)[C@@H](CN(C)Cc1ccc(C(F)(F)F)cc1)O2,i,i,i,i

# Shown with values under each structure: 2 of the compounds above.
# Value order: Myc binder | ID4 binder | mut p53 SMM | STAT3 binder
- COc1cc(O)cc2c1C(=O)OC(C)C2 (stereo not drawn)
→ i | i | i | i
- C[C@@H]1CN([C@H](C)CO)C(=O)c2cccc(NC(=O)c3ccncc3)c2O[C@@H]1CN(C)CC1CC1
→ i | i | i | i

# (further entries)
SMILES,Myc binder,ID4 binder,mut p53 SMM,STAT3 binder
C[C@@H]1CN([C@@H](C)CO)C(=O)Cc2cc(NC(=O)Nc3ccc(F)cc3)ccc2O[C@@H]1CN(C)C(=O)NC1CCCCC1,i,i,i,i
CC(Sc1nc(-c2ccccc2)c(C#N)c(=O)[nH]1)C(=O)Nc1ccc(Cl)cc1 (stereo not drawn),i,i,i,i
C[C@@H]1CN([C@@H](C)CO)C(=O)Cc2cc(NC(=O)CCN3CCOCC3)ccc2O[C@@H]1CN(C)Cc1ccc(C(F)(F)F)cc1,i,i,i,i
COc1ccc(S(=O)(=O)N(C)C[C@H]2Oc3ccc(NC(=O)Cc4cn(C)c5ccccc45)cc3C(=O)N([C@H](C)CO)C[C@H]2C)cc1,i,i,i,i
CCc1cccc(C)c1NC(=O)CSc1nc2sc3c(c2c(=O)n1C)CCC(C)C3 (stereo not drawn),i,i,i,i
CC(C)(O)/C=C/C(=O)[C@](C)(O)[C@H]1[C@H](O)C[C@@]2(C)[C@@H]3CC=C4[C@@H](C=C(O[C@@H]5O[C@H](CO)[C@@H](O)[C@H](O)[C@H]5O)C(=O)C4(C)C)[C@]3(C)C(=O)C[C@]12C,i,nt,i,i
C[C@H](CO)N1C[C@H](C)[C@H](CN(C)C(=O)Nc2ccccc2)Oc2c(NS(=O)(=O)c3ccccc3)cccc2C1=O,i,i,i,i
C[C@@H]1CCCCO[C@H](CN(C)C(=O)C2CCCCC2)[C@H](C)CN([C@H](C)CO)C(=O)c2cc(NS(=O)(=O)c3ccccc3)ccc2O1,i,i,i,i
C[C@@H]1CCCCO[C@@H](CN(C)C(=O)Cc2ccccc2)[C@H](C)CN([C@H](C)CO)C(=O)c2cc(NC(=O)c3ccncc3)ccc2O1,i,i,i,i
C=C[C@@]1(C)C[C@H](O)[C@@H]2[C@@H](OC(O)[C@H]2C)[C@@H]1C(=C)C (stereo partly drawn),i,i,i,i
C[C@H](CO)N1C[C@H](C)[C@@H](CN(C)CC2CCCCC2)OCCCC[C@H](C)Oc2ccc(NC(=O)Nc3cccc4ccccc34)cc2C1=O,i,nt,i,i
CNC[C@H]1Oc2ccc(NS(=O)(=O)c3c(C)noc3C)cc2CC(=O)N([C@H](C)CO)C[C@H]1C,i,i,i,i
COc1ccc(NC(=O)Nc2cccc3c2O[C@H](CN(C)C(=O)Nc2ccccc2)[C@@H](C)CN([C@H](C)CO)C3=O)cc1,i,i,i,i
COc1cc(SC)ccc1C(=O)NCCc1c[nH]c2ccccc12,i,i,i,i
C[C@H]1CN([C@@H](C)CO)C(=O)c2cccc(NC(=O)Nc3ccc(C(F)(F)F)cc3)c2O[C@@H]1CN(C)CC1CC1,i,i,i,+
